Compound activity from PubChem BioAssay.
TRPV1 potentiator – potentiators of human vanilloid receptor 1 (TRPV1) | Q8NER1 | TRPV1-expressing cells, Fluo-8 calcium influx, capsaicin EC20 potentiation; host cell line not named in the record; control for the full effect not named in the record | potentiation, % at 8.33 µM | 320,000 compounds, 0.02% hits | AID 540277; active means potentiation above 80%; inconclusive means 30% to 80%; inactive means below 30%; note: 0% is about no effect
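Fluo-8 calcium influx in TRPV1-expressing cells, kinetic read (ex 480/em 520 nm). Compound added and read 3 min for agonist activity, followed by capsaicin at EC20 final and 2 min further read for enhancement.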
Menin MLL FP FL – inhibitors of human menin-MLL interaction, wild-type MLL peptide. Fluorescence polarization, fluorescein-MLL peptide displacement from menin. FP activity change, % at 61.4 µM. 290,000 tested, under 10 active. AID 1766; inconclusive = falling polarisation curve, or a change in total fluorescence; inactive = total fluorescence flat and polarisation flat or rising; no compound was filed as active; the % refers to the polarisation; negative = inhibition;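 note: % of control where 0% means no effect; inhibitors lower the polarisation; unlabelled MLL peptide was the positive control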
gsp antagonist – antagonizes gsp, the McCune-Albright syndrome mutation | 340,000 compounds, 0.4% hits | gsp-mutant cells, cAMP HTRF, 30 min; control for the full effect not named in the record | Potency, µM (series often up to 76.9 µM), for inactives: top-dose activity change, negative = inhibition, hits mostly inhibitors; active = falling curve of any shape with a large fitted effect; inconclusive = falling curve, mostly with a smaller effect; inactive = flat or rising curve; cell line not stated here;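 note: intracellular cAMP measured with PDE inhibitor Ro 20-1724 present during compound exposure; potency is the fitted concentration of half-maximal effect; % is set by controls: 0 for no effect and ±100 for the full control effect; nearly all actives have a fitted effect of over 65% in size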
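HTRF cAMP measurement after 30 min RT detection following 30 min, 37C compound treatment alongside […] (added as 300 uM solution) in G418-selected cells seeded at 2000/well and grown 16–24 h.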
ClpP mod – qHTS Assay for Activators of ClpP | purified B. subtilis ClpP, FRET peptide cleavage, 20 min | Potency, µM (doses to about 57.5 µM), for the others: top-dose activity change, negative = active | 340,000 compounds, 1.9% hits; active = well fitted falling curve with a large enough effect; inconclusive = small, poorly fitted or top-dose-only effect; inactive = no such curve, though single readings can be large or run the other way; note: potency is the fitted concentration of half-maximal effect; the source files actives as falling curves though it sought activators and does not explain the sign; nearly all actives have a fitted effect of over 65% in size; many hits overshoot -100%
Target sequence (P80244 whole entry, looked up): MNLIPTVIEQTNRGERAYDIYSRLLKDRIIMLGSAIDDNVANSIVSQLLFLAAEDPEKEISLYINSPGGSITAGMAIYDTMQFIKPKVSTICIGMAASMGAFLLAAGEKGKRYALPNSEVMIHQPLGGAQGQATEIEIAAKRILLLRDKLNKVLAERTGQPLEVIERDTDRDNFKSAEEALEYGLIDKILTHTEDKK
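FRET quenching reversal measured ClpP activation: 10 microg/mL B. subtilis ClpP at pH 8 with the FRET-FV decapeptide, read at 430 nm after 320 nm excitation. The 20-min minus 0-min signal was scaled between DMSO/no-enzyme wells and ADEP (5.8 microM final).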
gsp ag – agonists of gsp mutant (McCune-Albright syndrome); gsp mutant cells, cAMP HTRF, 30 min; control for the full effect not named in the record; Potency, µM (series often up to 76.9 µM), without a hit: at the highest dose activation (cAMP increase), usual class: activators; 340,000 compounds, 0.13% hits; AID 624287; active = well fitted activation curve with a large enough effect; inconclusive = small, poorly fitted or top-dose-only effect, or another doubt; inactive = no such curve, though single readings can be large or run the other way; cell line not stated here;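 note: phosphodiesterase inhibitor Ro 20-1724 added with compounds to block cAMP breakdown; potency is the fitted concentration of half-maximal effect; nearly all actives have a fitted effect of over 60% in size; about a fifth of the inactives were tested at one dose only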
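Cells stably selected in G418 were plated at 2000/well, grown 16-24 hr, then given compounds in DMSO with the PDE inhibitor […] (300 uM solution added) for 30 min at 37C; cAMP was read by HTRF.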
Sfp PPTase inh – inhibitors of Bacillus subtilis Sfp phosphopantetheinyl transferase; Biochemical Sfp PPTase activity, qHTS; Potency, µM, inactives show max response, negative = inhibition, usual class: inhibitors; 310,000 compounds, 3.5% hits; active = well fitted inhibition curve with a large enough effect; inconclusive = small, poorly fitted or top-dose-only effect, or another doubt; inactive = no such curve, though single readings can be large or run the other way;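 note: the enzyme is Sfp with the accession as filed and its product quenches rhodamine fluorescence; potency is the fitted concentration of half-maximal effect; 0% = enzyme reaction without inhibitor and -100% = no enzyme wells; top concentration of the series not given in the record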
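Sfp 15 nM + cpd, 15 min RT; start w/ rhodamine-CoA 5 uM, BHQ-2-YbbR 12.5 uM (final); 50 mM Hepes pH 7.6, 10 mM MgCl2, 0.01% NP-40, 0.01% BSA; read 525/598 nm at 0 and 30 min.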
D2 potentiator – positive allosteric modulators of human D2 dopamine receptor | potentiation, % (test concentration not listed) | P14416 | 360,000 compounds, 0.23% hits | DiscoveRx D2 beta-arrestin cells, luminescence, 90 min; 100% = 57 uM dopamine signal; active = potentiation of 50% or more; inconclusive = 30% to 50%; inactive = 30% or less;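 note: compound concentration not given in the record; tested on top of an EC20 dose of dopamine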
Target sequence (P14416 whole entry, looked up): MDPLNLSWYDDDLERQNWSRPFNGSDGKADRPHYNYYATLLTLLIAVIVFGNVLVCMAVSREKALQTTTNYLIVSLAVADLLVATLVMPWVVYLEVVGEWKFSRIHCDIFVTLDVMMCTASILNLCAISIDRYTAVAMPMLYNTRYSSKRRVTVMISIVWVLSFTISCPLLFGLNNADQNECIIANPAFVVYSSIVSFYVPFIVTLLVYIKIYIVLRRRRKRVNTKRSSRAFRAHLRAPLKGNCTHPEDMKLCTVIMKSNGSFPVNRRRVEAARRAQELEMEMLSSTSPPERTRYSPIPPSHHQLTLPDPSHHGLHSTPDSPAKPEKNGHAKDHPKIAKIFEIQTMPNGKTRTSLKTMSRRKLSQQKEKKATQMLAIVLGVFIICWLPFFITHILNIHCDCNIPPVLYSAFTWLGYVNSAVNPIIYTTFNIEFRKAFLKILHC
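PathHunter beta-arrestin assay in DiscoveRx D2 cells. Compounds were added with an EC20 of dopamine (50 nM final) for 90 min at 37 deg C. Luminescence was read 1 h after detection reagent, with 57 uM dopamine as the EC100 control.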
An asterisk follows results filed as active; ? = inconclusive; . = not tested or not shown; [ ] = another dose, or the depositor's remark.

SMILES | TRPV1 potentiator | Menin MLL FP FL | gsp antagonist | ClpP mod | gsp ag | Sfp PPTase inh | D2 potentiator
CCOC(=O)C1CCN(c2nc3ccccc3n2CC(=O)c2ccccc2)CC1 | -2 | ? | -7% | -0.6% | -3% | 0% | -5
O=C(Cc1cccs1)N1CCC(c2nc3c(nnn3Cc3ccccc3)c(=O)[nH]2)CC1 | -2 | 5.2 | 6% | -0.1% | 35% | 2% | -6
Cc1ccc(S(=O)(=O)Nc2nc(C)cc(-n3nc(C)cc3C)n2)cc1 | ? | -1.9 | -1% | -9.4% | -55%[inhibitor] | 1% | -12
COc1ccc(CCNC(=O)CSc2nc3ccsc3c(=O)n2CC2CCC(C(=O)O)CC2)cc1OC (stereo not given) | 1 | 1.0 | 5% | -1.5% | 22% | 7% | -10
O=C(CCSc1ccccc1)Nc1nccs1 | -6 | 3.8 | 14% | -1.2% | 7% | 11% | -12
CCN(CC)C(=O)Cn1cc(S(=O)(=O)Cc2cccc([N+](=O)[O-])c2)c2ccccc21 | ? | 0.7 | -8% | . | -13% | 5% | -2
COc1cc(NC(=O)CN2C(=O)COc3ccc(S(=O)(=O)N4CCOCC4)cc32)cc(OC)c1 | 4 | 1.7 | -7% | -2.1% | ? | 7% | 0
COC(=O)c1c(SCc2ccc(C#N)cc2)nc(=O)[nH]c1C | -8 | -3.1 | -7% | . | -19% | -20% | 5
O=S(=O)(CCN1C=CC(C(F)(F)F)=NCC1)c1ccc(Cl)cc1Cl | -15 | 1.3 | 1% | -3.1% | -14%[15.4 µM] | 3% | 4
CN(C)C(CNc1ccc(S(C)(=O)=O)cc1[N+](=O)[O-])Cc1ccccc1 (stereo not given) | 3 | 1.4 | 2% | -1.5% | 24%[15.4 µM] | 25% | -12
CCOC(=O)N1CCN(C(=O)C2CCN(S(C)(=O)=O)CC2)CC1 | 11 | 3.4 | 3% | -1.4% | -70%[inhibitor] | 4% | -4
CC(OC(=O)c1cn(-c2ccccc2)nc1-c1cccnc1)C(N)=O (stereo not given) | -25 | 6.1 | -10% | . | -1%[15.4 µM] | -13% | -2
CC(C)OCCCNC(=S)Nc1ccc2nc3n(c(=O)c2c1)CCCCC3 | -1 | 0.9 | 1% | 1.7% | 4% | 11% | 5
C=CCc1cccc(C=Nc2cc(Br)ccc2O)c1O | -12 | 2.4 | 9% | -0.9% | 6%[15.4 µM] | ? | 72*
CCN(CC)S(=O)(=O)c1ccc2c(c1)c(=O)c(C(=O)NCc1ccco1)cn2C | 2 | -2.5 | -23% | 0.0% | 13% | 12% | -4
COc1ccccc1C(=O)NC(=O)COC(=O)C1CC1 | -7 | . | 16% | -20% | -9%[15.4 µM] | . | 2
COC(=O)c1nc(N)sc1-c1ccc(Cl)cc1 | -13 | 1.4 | 2% | . | -12%[15.4 µM] | 11% | 0
CC(=O)Nc1nnc(SCC(=O)NC(C)(C)C)s1 | 13 | 0.9 | 2% | 0.1% | -1% | -11% | 6
COc1ccc(NC(=S)N(Cc2cccnc2)Cc2cc3cc(OC)c(OC)cc3[nH]c2=O)cc1 | 7 | -1.5 | -18% | 3.5% | -10% | 3% | -4
CN1CCN(CC(O)Cn2c3ccccc3c3ccccc32)CC1 (stereo not given) | 24 | -9.7 | 10% | -21% | -28% | 50µM* | 7
COc1cc(-c2nnc(SCC(=O)NC3CCCC3)n2C)cc(OC)c1O | -1 | . | 9% | 1.1% | -16% | 15% | 2
CC(C)C1N=C2c3ccccc3N=C(SCC(=O)NCCc3ccc(S(N)(=O)=O)cc3)N2C1=O (stereo not given) | 26 | -2.4 | 18% | 32µM* | -5% | -2% | 6
O=C(c1cc2ccccn2n1)N1CCN(Cc2ccccc2)CC1 | -19 | -1.1 | 4% | -18% | -29% | -18% | -8
O=C(CNC(=O)c1ccc(Br)o1)OCC(=O)c1cccc([N+](=O)[O-])c1 | 6 | 0.2 | 6% | . | -2%[15.4 µM] | -15% | -38
CC(=O)Nc1ccc(/C=C2\CCc3ccccc3C2=O)cc1 | -4 | 6.5 | 9% | 3.4% | -1%[15.4 µM] | -7% | -6
SMILES | TRPV1 potentiator | Menin MLL FP FL | gsp antagonist | ClpP mod | gsp ag | Sfp PPTase inh | D2 potentiator
Cc1cc(OCC(=O)Nc2ccc(S(=O)(=O)N3CCN(C)CC3)cc2)ccc1Cl | 6 | 2.5 | 7% | 0.7% | 13% | -7% | -12
CC1CCN(C(=O)c2ccc(CS(=O)(=O)Cc3ccccc3)cc2)CC1 | -13 | 1.7 | -11% | -0.7% | ? | 17% | -8
CC(NC(=O)c1ccc(F)cc1)C(=O)NC1=NCCS1 (stereo not given) | -17 | -3.7 | 8% | . | -3%[15.4 µM] | -4% | 2
CC(C)C(NC(=O)C12CC3CC(CC(C3)C1)C2)C(=O)O (stereo not given) | -2 | 4.4 | 15% | 0.3% | ? | 18% | -5
Cc1ccc(C(=O)CCC(=O)Nc2ccccc2F)cc1 | ? | -2.9 | 5% | 0.2% | 5% | 15% | -2
O=c1nc(N2CCCCC2)nc(Nc2ccccc2)[nH]1 | 10 | -4.5 | 0% | 0.4% | 2% | 0% | -4
COc1ccc(N2CC(O)(c3ccc(C)cc3)[N+]3=C2CCCC3)cc1 (stereo not given) | 0 | -1.9 | 6% | . | -15%[15.4 µM] | 11% | -5
N#CC1=C(SCC(=O)Nc2ccc(C(=O)O)cc2)NC(=O)CC1c1ccco1 (stereo not given) | -9 | 7.0 | 13% | 0.0% | -16% | 32µM* | -10
N#CCCN(C(=O)COC(=O)C1=NNC(=O)CC1)c1ccccc1 | 17 | . | 10% | . | 10%[15.4 µM] | . | -3
O=C(O)c1cc2nc(-c3cccs3)cc(C(F)(F)F)n2n1 | 1 | -0.6 | 0% | . | ? | 3% | 2
Nc1nnc(SCC(=O)Nc2cc(S(=O)(=O)N3CCOCC3)ccc2Cl)s1 | 6 | 8.3 | -1% | . | ? | -15% | -2
CCN(CC)C1CCN(C(=O)c2ccc3nc(Cc4ccc(OC)cc4)oc3c2)C1 (stereo not given) | ? | 1.1 | 3% | -0.9% | 2% | -4% | -10
Cc1ccccc1NC(=O)Cc1nc(-c2ccc3ccccc3c2)cs1 | 23 | -0.3 | -23% | -5.5% | -14% | -12% | -15
Oc1ccc(/C=N/N(Cc2ccccc2)c2ccccc2)c(O)c1O | 17 | 9.8 | 8% | . | 3%[15.4 µM] | 56µM* | 14
O=C(NC12CC3CC(CC(C3)C1)C2)c1ccccc1O | -17 | 4.6 | -27% | 28µM* | 13% | 25% | 1
O=C(C[n+]1ccc(C(=O)N/N=C/c2ccc(Br)cc2)cc1)c1ccccc1 | -20 | 4.9 | -25% | 1.6% | -6% | -24% | -20
Cc1nnc(NS(=O)(=O)c2ccc(N=Nc3ccc(N)nc3N)cc2)s1 | . | . | -1% | -9.0% | -58%[inhibitor] | . | -13
Cc1cc(Nc2ccc(C)c(Cl)c2)nc(N2CCOCC2)n1 | -5 | -0.2 | -7% | . | -29% | -6% | -5
O=C(Nc1cccnc1)c1ccc(COc2cc(Cl)ccc2Cl)o1 | -10 | 1.6 | -3% | -2.9% | 0% | -7% | -4
COc1ccc(NC(=O)CCOc2ccc(C)cc2)cc1S(=O)(=O)N1CCCCC1 | 4 | . | -21% | 1.0% | -30%[inhibitor] | . | -5
CCCCCCn1c(=O)n2n(c1=O)[C@@H]1CN(S(=O)(=O)c3ccc(C)cc3)C[C@]1(O)[C@@H](OC(=O)NCc1ccc(OC)c(OC)c1)C2 | . | . | . | -2.0% | -26% | . | -2
O=C1c2ccccc2C(=O)N1CCCc1cn(C[C@H]2CC[C@@H]([C@@H]3CC[C@H](Cn4cc(CCCN5C(=O)c6ccccc6C5=O)nn4)O3)O2)nn1 | -7 | -10 | -7% | 1.1% | . | 15% | 5
COc1ccc(C(C)C)cc1S(=O)(=O)NCC1CCCO1 (stereo not given) | -5 | -4.3 | 10% | -1.0% | -17% | 22% | -7
Cc1ccc(NC(=S)N2CCc3[nH]c4ccccc4c3C2)cc1 | -43 | -0.3 | 4% | 0.7% | 1%[15.4 µM] | 7% | -10
CNc1nc(NC)nc(NNC(=O)c2ccccc2)n1 | . | . | 1% | 2.6% | -27% | . | -10
SMILES | TRPV1 potentiator | Menin MLL FP FL | gsp antagonist | ClpP mod | gsp ag | Sfp PPTase inh | D2 potentiator
Cc1ccc(S(=O)(=O)Nc2ccc(F)c(S(=O)(=O)N3CCOCC3)c2)cc1 | . | . | -18% | 2.3% | 2% | . | 8
CCCCNC(=O)c1cn(CC(C)C)c(=O)c2c1c1ccccc1n2C | 5 | -0.3 | 1% | -1.1% | -7%[15.4 µM] | -1% | -2
O=C(CSc1nc2ccccc2nc1SCC(=O)N1CCCCC1)N1CCCCC1 | 1 | 2.1 | 0% | -0.6% | ? | ? | -1
COc1ccc(C(=O)NC2CCN(S(=O)(=O)Cc3ccccc3)CC2)c(OC)c1 | 2 | 1.5 | 1% | -1.8% | 2% | 23% | 9
COCCN(C(=O)COC(=O)CCCOc1ccccc1)c1c(N)n(Cc2ccccc2)c(=O)[nH]c1=O | 1 | . | 6% | -2.8% | -4%[15.4 µM] | . | -13
CCCCn1c(N)c(N(CCOC)C(=O)COC(=O)COc2cc(C)ccc2Cl)c(=O)[nH]c1=O | 1 | . | 11% | 1.3% | 7% | . | -1
Cc1cc(C)n(-c2ccc(F)cc2)c(=O)c1C#N | 9 | -0.8 | -12% | . | -4%[15.4 µM] | 20% | -9
COc1ccc(-c2c(-c3ccc(OC)nc3)c3ccccc3n2C)cc1 | . | . | -12% | 3.6% | 1% | . | -3
CCOc1ccc(CCNC(=O)CN2C(=O)NC3(CCCCC3C)C2=O)cc1OCC (stereo not given) | -7 | . | 10% | . | -34%[15.4 µM] | . | -12
COc1ccccc1C(=O)Nc1ccc(-c2nnn(CC(=O)N3CCOCC3)n2)cc1 | 4 | -2.5 | -10% | . | 0%[15.4 µM] | 4% | -3
CNS(=O)(=O)c1cc(C(=O)O)ccc1OC | 3 | 0.8 | . | . | 5%[15.4 µM] | 26% | 2
COc1ccc(COC(=O)NC2CCN(S(=O)(=O)c3ccc(OC)cc3)CC2)cc1 | -2 | 0.6 | -4% | -1.9% | 1% | 4% | -4
